Source: PubChem
D2 agonist: Beta-Arrestin HTS for Positive Allosteric Modulators of the Human D2 Dopamine Receptor: Agonists. D(2) dopamine receptor (Homo sapiens), P14416. DiscoveRx PathHunter D2 beta-arrestin, luminescence, 90 min; 100% = 57 uM dopamine signal. 0.084% of 360,000 active. activation, % (concentration not given with the values); in the data active = activation above about 40%; inconclusive = about 15% to 40%; inactive = below about 15%; also: compound concentration not given in the record; the text of the record calls up to 30% inactive
Target sequence (P14416 whole entry, looked up): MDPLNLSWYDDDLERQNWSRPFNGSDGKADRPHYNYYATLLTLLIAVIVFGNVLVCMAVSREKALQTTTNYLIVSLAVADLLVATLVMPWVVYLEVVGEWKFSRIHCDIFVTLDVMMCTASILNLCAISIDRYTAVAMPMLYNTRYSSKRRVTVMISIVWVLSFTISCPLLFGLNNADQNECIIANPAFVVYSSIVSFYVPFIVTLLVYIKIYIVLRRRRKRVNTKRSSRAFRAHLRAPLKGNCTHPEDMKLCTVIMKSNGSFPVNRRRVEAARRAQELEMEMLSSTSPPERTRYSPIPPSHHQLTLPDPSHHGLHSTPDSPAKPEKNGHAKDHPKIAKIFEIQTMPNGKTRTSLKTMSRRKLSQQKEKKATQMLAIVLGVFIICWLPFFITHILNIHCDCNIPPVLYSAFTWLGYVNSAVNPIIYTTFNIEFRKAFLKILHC
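DiscoveRx PathHunter D2 beta-arrestin cells (2,100/well) attached overnight, then compound-stimulated 90 min at 37 C in HBSS/10 mM HEPES/0.1% Tween-20 buffer; beta-galactosidase complementation read by luminescence after 1 h at ambient temperature. Dopamine 57 uM final (EC100) as control.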
gsp ag: qHTS for Agonist of gsp, the Etiologic Mutation Responsible for Fibrous Dysplasia/McCune-Albright Syndrome: qHTS; gsp mutant cells, cAMP HTRF, 30 min; control for the full effect not named in the record; Potency, µM (doses to about 76.9 µM), without a hit: top-dose activation (cAMP increase), usual class: activators; 0.13% of 340,000 active; active = well fitted activation curve with a large enough effect; inconclusive = small, poorly fitted or top-dose-only effect, or another doubt; inactive = no such curve, though single readings can be large or run the other way; cell line not stated here;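 also: phosphodiesterase inhibitor Ro 20-1724 added with compounds to block cAMP breakdown; potency is read from the fitted curve at half-maximal effect; nearly all actives have a fitted effect of over 60% in size; about a fifth of the inactives were tested at one dose only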
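Cells in DMEM/10% FBS with G418 were pretreated with compounds in DMSO plus […] (300 uM stock) for 30 min at 37C. cAMP was measured by HTRF (cAMP-d2 plus anti-cAMP antibody-K) after 30 min at room temperature.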
PINK1 expr mod: A Quantitative High throughput Screen to Identify Chemical Modulators of PINK1 Expression. PINK1 immunofluorescence, high-content cytometry, 24 h. Potency, µM (doses to about 76.6 µM), for inactives: at the highest dose activation (PINK1 increase), usual class: activators. 0.2% of 410,000 active; active = well fitted activation curve with a large enough effect; inconclusive = small, poorly fitted or top-dose-only effect; inactive = flat fitted curve, though single readings scatter; cell line not stated here;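 also: potency is read from the fitted curve at half-maximal effect; % of control where 0% means no effect; nearly all actives have a fitted effect of over 65% in size; a mitochondrial uncoupler was the plate control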
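Cells are seeded, rested 12 hours, then given compound at five concentrations or DMSO for 24 hours. After fixation, blocking and antibody staining, PINK1 amount and mitochondrial localization are scored; CCCP serves as control.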
Menin-MLL FL inh: qHTS Assay for Inhibitors Targeting the Menin-MLL Interaction in MLL Related Leukemias: Competition With Fluorescein Labeled MLL-derived Peptide; Fluorescence polarization, fluorescein-MLL peptide displacement from menin; FP activity change, % at 61.4 µM; 290,000 tested, under 10 active; AID 1766, 2009; inconclusive = falling polarisation curve, or a change in total fluorescence; inactive = total fluorescence flat and polarisation flat or rising; no compound was filed as active; the % refers to the polarisation; negative = inhibition;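 also: % of control where 0% means no effect; inhibitors lower the polarisation; unlabelled MLL peptide was the positive control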
ClpP mod: qHTS Assay for Activators of ClpP. ATP-dependent Clp protease proteolytic subunit (Bacillus subtilis (strain 168)), P80244. purified B. subtilis ClpP, FRET peptide cleavage, 20 min. Potency, µM (titrated, usually from 57.5 µM), without a hit: top-dose activity change, negative = active. 1.9% of 340,000 active. AID 651965, 2013; active = well fitted falling curve with a large enough effect; inconclusive = small, poorly fitted or top-dose-only effect; inactive = no such curve, though single readings can be large or run the other way; also: potency is read from the fitted curve at half-maximal effect; the source files actives as falling curves though it sought activators and does not explain the sign; nearly all actives have a fitted effect of over 65% in size; many hits overshoot -100%
Target sequence (P80244 whole entry, looked up): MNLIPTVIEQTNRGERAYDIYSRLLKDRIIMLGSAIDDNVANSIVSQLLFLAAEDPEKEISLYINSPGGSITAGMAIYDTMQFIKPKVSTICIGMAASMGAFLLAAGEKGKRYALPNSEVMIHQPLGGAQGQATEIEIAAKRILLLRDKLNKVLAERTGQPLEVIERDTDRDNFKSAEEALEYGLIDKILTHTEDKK
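ClpP 10 microg/mL final, pH 8 Tris/KCl buffer with BSA, glycerol, Tween-20; compound pinned in; FRET-FV substrate; RT 20 min; Ex320/Em430; ΔFRET vs ADEP 5.8 microM, DMSO, no enzyme.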
gsp antagonist: qHTS for Antagonists of gsp, the Etiologic Mutation Responsible for Fibrous Dysplasia/McCune-Albright Syndrome: qHTS; gsp-mutant cells, cAMP HTRF, 30 min; control for the full effect not named in the record; Potency, µM (top dose mostly 76.9 µM), without a hit: top-dose activity change, negative = inhibition, most hits filed as inhibitors; 0.4% of 340,000 active; active = falling curve of any shape with a large fitted effect; inconclusive = falling curve, mostly with a smaller effect; inactive = flat or rising curve; cell line not stated here;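 also: intracellular cAMP measured with PDE inhibitor Ro 20-1724 present during compound exposure; potency is read from the fitted curve at half-maximal effect; % is scaled to controls: 0 for no effect and ±100 for the full control effect; nearly all actives have a fitted effect of over 65% in size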
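HTRF cAMP read-out (cAMP-d2 plus anti-cAMP antibody-K in lysis buffer, 30 min RT). Before lysis, cells are exposed to compounds with […] for 30 min at 37C in DPBS containing Ca/Mg, BSA and Tween 20.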
Sfp PPTase inh: qHTS Assay for Inhibitors of Bacillus subtilis Sfp phosphopantetheinyl transferase (PPTase); Biochemical Sfp PPTase activity, qHTS; 4'-phosphopantetheinyl transferase ffp (Bacillus subtilis), Q9F4F7; 3.5% of 310,000 active; Potency, µM, for the others: max response, negative = inhibition, usual class: inhibitors; AID 1490, 2009; active = well fitted inhibition curve with a large enough effect; inconclusive = small, poorly fitted or top-dose-only effect, or another doubt; inactive = no such curve, though single readings can be large or run the other way;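 also: the enzyme is Sfp with the accession as filed and its product quenches rhodamine fluorescence; potency is read from the fitted curve at half-maximal effect; 0% = enzyme reaction without inhibitor and -100% = no enzyme wells; top concentration of the series not given in the record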
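Compounds were incubated with enzyme (final 15 nM) for 15 min at room temperature before substrate addition started the reaction. Fluorescence at 525 nm excitation, 598 nm emission was recorded immediately and after 30 minutes.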
* marks the source's active call; other numbers are inactive results; ? = inconclusive; . = not tested or not shown; & = joins results of further samples; [ ] = another dose, or the depositor's remark.

SMILES | D2 agonist | gsp ag | PINK1 expr mod | Menin-MLL FL inh | ClpP mod | gsp antagonist | Sfp PPTase inh
COc1ccc(CCNC(=O)c2ccc(CS(=O)(=O)Cc3ccc(C)cc3)o2)cc1OC | 0.5 | 9.5% | 1.5% | . | -0.1% | . | .
COc1ccc(C(=O)N(CC2CCCO2)C(C(=O)NC2CCCC2)c2ccc(Cl)cc2)cc1OC (stereo unspecified) | -4.6 | ? | -3.5% | -0.8 | -0.9% | -0.5% | 4.3%
Cc1ccc(C)c(Cn2nc(-c3ccccc3)ccc2=O)c1 | -6.4 | 2.6% | 7.8% | 7.8 | . | -20.6% | -21.4%
O=C(Nc1nnc(C2CC2)s1)c1cc(S(=O)(=O)N2CCN(c3ccccc3)CC2)ccc1Cl | -2.7 | ? | 5.8%[38.3 µM] | 5.9 | -2.5% | 10.0% | 11.5%
CCCCCC(=O)Nc1ccc2ccccc2c1 | 0.4 | -32.8%[inhibitor] | 2.1% | 0.1 | -5.6% | 13.2% | 7.7%
c1ccc2nc(N3CCCC3)c(N3CCCCC3)nc2c1 | 0.8 | 3.8%[15.4 µM] | 12.3% | . | 1.2% | 2.2% | .
Cc1cc(OCC(=O)NCc2ccncc2)c2c(C)cc(=O)oc2c1 | 3.2 | -19.7% | -1.5% | 2.6 | 3.5% | 1.0% | 16.4%
CCCCC(=O)Nc1ccc(C(=O)Nc2cc(C(F)(F)F)ccc2Cl)cc1 | -1.5 | 25.0% | 1.8% | 5.7 | -17.3% | 0.2% | -2.9%
CCOc1ncccc1C(=O)Nc1cccc(-c2nnc3n2CCCCC3)c1 | 0.8 | -2.2% | -1.3% | 1.1 | . | 4.3% | 25.2%
C[C@@H]1CN([C@@H](C)CO)S(=O)(=O)c2ccc(-c3ccccc3)cc2O[C@@H]1CN(C)Cc1ccccc1C(=O)O | -10.6 | -7.8% | 1.3% | . | -1.7% | . | .
Cc1c(C(=O)N(Cc2ccccc2)Cc2cccnc2)cnn1-c1ccc(F)cc1 | 5.3 | -2.2%[15.4 µM] | 0.6% | -3.2 | . | -7.3% | 1.1%
CCc1nn(C(C)C(=O)NCc2cccc(Cl)c2)c(=O)c2cc3occc3n12 (stereo unspecified) | -5.4 | -21.7% | 0.1% | . | -5.9% | -10.7% | -2.8%
C/C(=N\NC(=O)Cc1cccc2ccccc12)c1ccncc1 | -2.6 | 1.5%[15.4 µM] | 3.4% | 5.4 | -2.4% | 9.8% | 3.6%
COc1cc(Cl)ccc1NC(=S)N(CCN1CCOCC1)C1CCN(C(C)=O)CC1 | -1.1 | -18.1% | 0.8% | 0.9 | 1.1% | -5.5% | -22.9%
CCc1ccc(OCc2nnc(NC(=O)c3cccs3)s2)cc1 | 3.5 | 0.1% | -2.3% | 1.3 | -4.3% | 4.4% | 16.3%
CCCc1nnc(SCC(=O)Nc2nc(C)cs2)n1CCOC | -2.4 | 16.1% | -0.6% | -2.8 | . | 4.1% | -1.6%
Cc1ccc(C(=O)/C=C/Nc2ccc3c(c2)OCO3)cc1 | -2.2 | 1.9% | 14.3% | 2.8 | 0.6% | -16.3% | 1.3%
O=C1SC(SC(=Nc2ccccc2)Nc2ccccc2)C(=O)N1c1ccccc1 (stereo unspecified) | -7.2&-3.6 | 9.9%&1.0% | -2.8%&1.0% | 6.4 | 1.3% | -7.0%&1.2% | -19.5%
O=C(CCl)NC(Cc1ccccc1)C(=O)OCC(=O)c1ccc(-c2ccccc2)cc1 (stereo unspecified) | -1.2 | -33.8%[inhibitor] | -3.0% | . | -10.9% | -23.4% | .
COc1ccc2sc(SCCCS(=O)(=O)O)[n+](CCCS(=O)(=O)[O-])c2c1 | -6.2 | 6.1% | -1.0% | 1.8 | -1.1% | 9.7% | 4.47µM*
Cc1cc(C(=O)OCC(=O)Nc2cc(S(=O)(=O)N3CCOCC3)ccc2Cl)c(C)o1 | -2.3 | 5.1% | 0.5% | 4.1 | -3.0% | -14.8% | 2.0%
Cc1nc2ccccc2n1CC(O)COc1ccc(Br)cc1 (stereo unspecified) | -1.6 | 1.2%[15.4 µM] | 1.2% | 0.0 | . | -4.3% | 15.1%
Nc1cc(=O)[nH]c(=O)n1CCc1ccccc1 | -3.3 | 0.6% | -0.5% | 1.2 | -2.8% | 4.6% | 5.9%
O=C(NCc1ccc(F)cc1)c1cc(C2CCCN(C(=O)C3CCCCC3)C2)on1 (stereo unspecified) | -2.9 | . | 0.2% | . | 0.1% | . | .
COc1ccc(Nc2nnc(-c3ccc(C)cc3)c3ccccc23)cc1C(=O)N1CCCCC1 | -2.0 | ? | 3.0% | -0.7 | . | ? | -28.5%
CC(C)CN(CCCNC(=O)CN1C(=O)COc2ccc(S(=O)(=O)N3CCC(C)CC3)cc21)CC(C)C | -0.3 | 20.9% | 5.7% | -0.7 | . | 7.9% | 3.0%
Fc1cccc(Cl)c1CNCCCSc1ncccn1 | 0.9 | -5.9% | 1.0% | -7.0 | 0.7% | 5.5% | 1.4%
O=C(C[n+]1cc(Br)cc(Br)c1)c1ccc(Cl)cc1 | -3.7 | -23.8% | 0.0% | -6.0 | . | 5.8% | 4.5%
Cc1ccc(OCCN2C(=O)OC(C)(C)C2(C)O)cc1 (stereo unspecified) | -0.8 | -17.7% | 2.8% | -3.7 | 1.5% | 4.0% | 5.6%
CCCNC(=O)c1noc2c1CCc1ccccc1-2 | 0.9 | 10.5% | 2.2% | -0.8 | 0.5% | 0.9% | 2.3%
CN(C)C(=O)COC(=O)c1ccccc1Nc1ccc(SC(F)F)cc1 | -5.6 | 0.7% | 0.4% | -1.5 | -4.0% | -18.3% | -7.6%
CCOc1ncccc1C(=O)OCC(=O)c1ccc(Cl)s1 | -3.6 | -2.3% | -0.5% | 6.0 | 1.0% | -7.2% | -17.2%
Cc1onc(-c2ccccc2)c1C(=O)N/N=C(\N)COc1ccc(Cl)cc1 | -1.0 | 14.3% | -34.4%[inhibitor][38.3 µM] | 1.9 | -0.1% | 3.5% | 5.4%
COc1ccc(NC(=O)CCN=C2NS(=O)(=O)c3ccccc32)cc1S(=O)(=O)N(C)C | 2.8 | 0.8% | 1.4% | . | -0.3% | 3.7% | .
N#Cc1c(/N=C/c2cc3ccccc3s2)sc2c1CCC2 | 5.0 | -0.3% | 0.4% | 0.6 | -9.2% | 6.4% | -28.3%
CCC(C(=O)NCc1ccccc1OC)c1ccccc1 (stereo unspecified) | 2.1 | -8.8% | -0.4% | -2.9 | 0.7% | 7.4% | 0.3%
O=C(Cn1ccc(NC(=O)OCc2ccccc2)nc1=O)NCCCc1ccccc1 | -2.2 | . | 2.4% | . | 4.1% | 0.6% | .
CC(=O)NC1=NN(C(C)=O)C(c2ccccn2)S1 (stereo unspecified) | -0.3 | 27.5% | -1.1% | 0.5 | . | 1.3% | -1.4%
CCCn1c(SCCc2ccccc2)nc2c1c(=O)[nH]c(=O)n2C | -2.1 | 0.2% | 0.0% | 0.6 | 2.5% | -2.5% | 0.3%
COc1ccc(C(=O)NNC(=O)C2(C)CC2(Br)Br)cc1 (stereo unspecified) | 1.5 | ? | -0.2% | -0.4 | 0.0% | -13.2% | -6.8%
Cc1ccc(C(=O)N2CCN(c3ccc(NC(=O)CSc4ccc(Cl)cc4)cc3)CC2)cc1 | -1.8 | -4.8%[15.4 µM] | 5.5% | -3.2 | 1.0% | -17.5% | 21.8%
O=C(CNCCC1=CCCCC1)Nc1ccccc1N1CCCCC1 | -2.1 | -2.4% | ? | 2.2 | -1.2% | -28.7% | ?
CC1(C)C(=O)Nc2ccccc2N1C(=O)COC(=O)c1cccnc1 | -6.3 | -62.2%[inhibitor] | -1.0% | . | -3.7% | 5.7% | .
COc1ccc(/C=N/NC(=S)NCCc2ccccc2)cc1 | -2.4 | -3.8% | 3.3% | -4.9 | -5.0% | -10.2% | 0.9%
COc1ccc(/C=N/NC(=O)CNC(=O)c2ccc(S(=O)(=O)N3CCCC3)cc2)c(OC)c1 | -0.3 | -0.7% | 0.6% | 7.2 | -0.3% | -18.6% | -3.6%
COc1nnc(-c2ccc(N3CCOCC3)c(NC(=O)C3CCCCC3)c2)c2ccccc12 | -0.3 | -6.7% | 3.7% | 4.6 | -1.4% | 9.0% | -2.4%
Cc1cc(C)n(C(=O)c2ccc(S(=O)(=O)N3CCCC3)cc2)n1 | -1.5 | 11.5% | 1.9% | 0.0 | 0.7% | -9.8% | 25.9%
COc1cccc(CNc2ncc(C(=O)Nc3cc(OC)c(OC)c(OC)c3)c(C)n2)c1 | ? | -2.5% | 6.3% | 8.4 | -3.6% | -11.9% | 15.8%
Cc1ccccc1C1CC(c2cccs2)=NN1S(C)(=O)=O (stereo unspecified) | -5.4 | -0.1% | 2.7% | ? | . | -1.2% | 24.2%
CCCC(C(=O)Nc1ccc2c(C)cc(=O)oc2c1)c1ccccc1 (stereo unspecified) | -2.6 | -59.7%[inhibitor] | 11.7% | . | 3.6% | -7.1% | -19.0%
COc1ccc(/C=C(\NC(=O)c2ccc(C)cc2)C(=O)Nc2ccc(C(=O)O)cc2)cc1 | 0.5 | 6.1%[15.4 µM] | -0.4% | -4.6 | 1.0% | -13.7% | -8.6%
O=C(COC(=O)Cn1[nH]c(=O)c2ccccc2c1=O)NNC(=O)c1ccc(Br)cc1 | -12.5 | -29.4% | 1.0% | . | 4.7% | 6.3% | .
Cc1cc(C)cc(NC(=O)COc2coc(CN3CCc4ccccc4C3)cc2=O)c1 | 13.8 | 13.4%[15.4 µM] | 4.7% | . | -2.0% | -0.8% | .

Compounds as they come (roughly 5.1% active in at least one column).
